Screening data from PubChem.
Vaccinia inh: Vaccinia orthopox stage-specific inhibition; activity change (mCherry), % (concentration not given with the values); Vaccinia-infected cells, mCherry/Venus stage reporter fluorescence; hits give low values; some inactives read as strong as hits; AID 1053133; 89,000 compounds, 0.01% hits;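 active = mCherry past -33% and 40 or more points under the early reporter, replicates agreeing; inconclusive = past -33% without that gap or agreement; tested in A549 cells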;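 note: scaled between vehicle wells and reference inhibitor wells; 23 nL library stock went into each well; one replicate is shown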
Vaccinia inh Venus: recorded beside Vaccinia inh, whose call it bears; activity change (Venus), %; measured here: Venus reporter, other viral stage;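 negative = less Venus signal; first of two replicates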
Starred values were filed as active, the others as inactive; ? = inconclusive; nt = no result given. The list is partial. The share of hits here may be higher or lower than overall.

SMILES	Vaccinia inh	Vaccinia inh Venus
O=C(C[C@H]1CC[C@H]2[C@@H](COC[C@H](O)CN2C(=O)c2cnccn2)O1)NCc1ccccc1	14	2
COc1cccc(S(=O)(=O)N(C)C[C@H]2Oc3cc(C#CCN(C)C)ccc3S(=O)(=O)N([C@H](C)CO)C[C@@H]2C)c1	-8	-12
CC(=O)N1[C@H](C(=O)N2CCCCC2)[C@@H](CO)[C@@H]2Cn3c(ccc(C4=CCCC4)c3=O)[C@@H]21	15	13
CC(C)CC#Cc1ccc([C@H]2[C@@H](CO)N3C(=O)CN(S(=O)(=O)c4cccc(F)c4)C[C@@H]23)cc1	?	nt
COc1ccc(CN(C)C[C@@H]2Oc3c(NS(=O)(=O)c4ccc(F)cc4)cccc3C(=O)N([C@@H](C)CO)C[C@@H]2C)cc1	-7	1
COCCNC(=O)[C@H]1[C@H](CO)[C@H]2Cn3c(ccc(-c4ccccc4OC)c3=O)[C@H]2N1C(=O)C1CCC1	6	-4
CCCNC(=O)N1C[C@@H]2[C@H](c3ccccc31)[C@@H](CO)N2C(=O)NCCC	25	19
CCCNC(=O)Nc1ccc2c(c1)C(=O)N(C)[C@H]1CC[C@H](CC(=O)NCC3CCCCC3)O[C@@H]1CO2	9	0
O=C(C[C@@H]1CC[C@H]2[C@@H](COC[C@@H](O)CN2C(=O)c2ccccc2)O1)Nc1ccc(-c2ccccc2)cc1	?	nt
C[C@@H]1CCCCO[C@@H](CN(C)C)[C@@H](C)CN([C@H](C)CO)C(=O)c2cc(NC(=O)c3ccncc3)ccc2O1	7	10
C[C@@H]1CCCCO[C@H](CN(C)Cc2ccccc2)[C@@H](C)CN([C@@H](C)CO)C(=O)c2cc(NC(=O)NC3CCCCC3)ccc2O1	?	nt
Cc1noc(C)c1NC(=O)N(C)C[C@@H]1Oc2c(NC(=O)Nc3ccc4c(c3)OCO4)cccc2C(=O)N([C@@H](C)CO)C[C@@H]1C	10	11
O=C(C[C@H]1CC[C@H]2[C@@H](COC[C@@H](O)CN2C(=O)Nc2ccc(F)cc2)O1)NCCc1ccccc1	4	3
Cc1ccc(S(=O)(=O)Nc2ccc3c(c2)C(=O)N([C@H](C)CO)C[C@@H](C)[C@@H](CN(C)Cc2ccc4c(c2)OCO4)OCCCC[C@@H](C)O3)cc1	?	nt
C[C@@H]1CCCCO[C@@H](CN(C)C(=O)Nc2cccc3ccccc23)[C@@H](C)CN([C@@H](C)CO)C(=O)c2cc(NC(=O)Nc3cccc4ccccc34)ccc2O1	27	14
COc1ccc2c3c(n(C)c2c1)[C@H](CO)N(C(=O)Nc1ccccc1F)CC31CN(C(C)=O)C1	5	4
C[C@H](NC(=O)C[C@@H]1CC[C@@H]2[C@H](COC[C@H](O)CN2Cc2cc(F)ccc2F)O1)c1ccccc1	2	1
COc1ccc(CN(C)C[C@@H]2OCCCC[C@H](C)Oc3ccc(NC(=O)Nc4cccc5ccccc45)cc3C(=O)N([C@@H](C)CO)C[C@@H]2C)cc1	-22	-23
C[C@@H]1CCCCO[C@H](CN(C)Cc2ccc(C(=O)O)cc2)[C@@H](C)CN([C@@H](C)CO)C(=O)c2cc(NC(=O)Nc3ccccc3)ccc2O1	17	6
C/C=C/c1cnc2c(c1)C(=O)N([C@H](C)CO)C[C@@H](C)[C@H](CN(C)S(=O)(=O)c1ccc(OC)cc1)O2	6	2
CC(C)CC#Cc1ccc2c(c1)O[C@H](CN(C)C(=O)Cc1ccccc1)[C@H](C)CN([C@H](C)CO)S2(=O)=O	?	nt
O=C(C[C@@H]1C[C@@H]2c3cc(NC(=O)Cc4ccncc4)ccc3O[C@@H]2[C@H](CO)O1)NCc1cccc(F)c1	11	12
C[C@@H]1CN([C@H](C)CO)C(=O)c2cc(C#CCc3ccccc3)cnc2O[C@H]1CN(C)Cc1ccc(C(=O)O)cc1	3	3
COc1ccccc1NC(=O)N[C@H]1CC[C@@H](CCn2cc(-c3ccccc3OC)nn2)O[C@H]1CO	-11	-2
CN1C(=O)c2cc(NC(=O)c3cnccn3)ccc2OC[C@@H]2O[C@H](CC(=O)O)CC[C@@H]21	-4	-6
COc1ccc(S(=O)(=O)N(C)C[C@@H]2Oc3ccc(NC(=O)Cc4ccccc4)cc3C(=O)N([C@@H](C)CO)C[C@@H]2C)cc1	-9	-5
CC(=O)N(C)C[C@H]1OCc2ccccc2-c2ccccc2C(=O)N([C@@H](C)CO)C[C@H]1C	27	15
O=C(Cc1ccccn1)N[C@@H]1CC[C@@H](CCn2cc(-c3ccc(F)cc3)nn2)O[C@H]1CO	13	7
C[C@H](CO)N1C[C@H](C)[C@H](CN(C)S(=O)(=O)c2ccc(F)cc2)Oc2ccc(NC(=O)NC3CCCCC3)cc2CC1=O	-15	-7
COc1ccc(NC(=O)N2CC(=O)N3[C@H](C2)[C@@H](c2ccc(Br)cc2)[C@@H]3CO)cc1	-24	-20

Whole records, looked up by structure:
`C[C@H](CO)N1C[C@H](C)[C@H](CN(C)S(=O)(=O)c2ccc(F)cc2)Oc2ccc(NC(=O)NC3CCCCC3)cc2CC1=O` is listed as Vaccinia inh = -15; Vaccinia inh Venus = -7
`COc1ccc(S(=O)(=O)N(C)C[C@@H]2Oc3ccc(NC(=O)Cc4ccccc4)cc3C(=O)N([C@@H](C)CO)C[C@@H]2C)cc1` is listed as Vaccinia inh = -9; Vaccinia inh Venus = -5
`CC(C)CC#Cc1ccc2c(c1)O[C@H](CN(C)C(=O)Cc1ccccc1)[C@H](C)CN([C@H](C)CO)S2(=O)=O` is listed as Vaccinia inh = ?; Vaccinia inh Venus = nt

Additional structures:
SMILES	Vaccinia inh	Vaccinia inh Venus
COc1ccc(NC(=O)Nc2ccc3c(c2)C(=O)N([C@@H](C)CO)C[C@H](C)[C@H](CN(C)C(=O)Cc2ccccc2)OCCCC[C@@H](C)O3)cc1	7	2
Cc1ccccc1S(=O)(=O)N[C@@H]1CC[C@H](CCn2cc(-c3ccccc3)nn2)O[C@@H]1CO	-13	-9
COc1ccc(S(=O)(=O)N(C)C[C@H]2OCCCC[C@@H](C)Oc3ccc(NC(=O)NC4CCCCC4)cc3C(=O)N([C@H](C)CO)C[C@@H]2C)cc1	13	3
COc1ccc(NC(=O)N(C)C[C@@H]2Oc3cc(C#CCN(C)C)ccc3S(=O)(=O)N([C@@H](C)CO)C[C@H]2C)cc1	7	-4
Cc1ccccc1-c1ccc2c(c1)O[C@H](CN(C)C)[C@H](C)CN([C@H](C)CO)S2(=O)=O	-9	-2
C[C@H](CO)N1C[C@H](C)[C@H](CN(C)C(=O)Nc2cccc3ccccc23)Oc2ccc(NC(=O)C3CCCCC3)cc2C1=O	-32	-26
Cc1ccc(S(=O)(=O)N2C[C@@H](O)COC[C@@H]3O[C@H](CC(=O)N[C@H]4CCN(Cc5ccccc5)C4)CC[C@H]32)cc1	-19	-12
COc1ccc(-c2cnc3c(c2)C(=O)N([C@H](C)CO)C[C@@H](C)[C@H](CN(C)Cc2ccccn2)O3)cc1	16	4
COc1cccc(CN(C)C[C@H]2OCc3ccccc3-c3ccccc3C(=O)N([C@@H](C)CO)C[C@H]2C)c1	-34	-25
C[C@H](CO)N1C[C@H](C)[C@@H](CN(C)C(=O)NC2CCCCC2)OCCCC[C@H](C)Oc2ccc(NS(=O)(=O)c3cn(C)cn3)cc2C1=O	11	-4
Cc1noc(C)c1NC(=O)N(C)C[C@H]1Oc2ccc(N(C)C)cc2C(=O)N([C@H](C)CO)C[C@H]1C	4	5
O=S(=O)(c1ccc(F)cc1)N1CCCCN2[C@H](C1)[C@H](c1ccc(C#CC3CCCC3)cc1)[C@@H]2CO	-23	-23
C[C@@H]1CN([C@@H](C)CO)C(=O)c2c(c3ccccc3n2C)-c2ccccc2CO[C@H]1CN(C)S(=O)(=O)c1ccccc1F	?	nt
COc1ccc(S(=O)(=O)N(C)C[C@H]2Oc3ccc(NC(=O)Nc4c(C)noc4C)cc3CC(=O)N([C@H](C)CO)C[C@@H]2C)cc1	-6	13
CCCC#Cc1ccc([C@H]2[C@H](CO)N3CCCCN(S(=O)(=O)c4ccccc4C)C[C@@H]23)cc1	?	nt

Arranged by length of the SMILES (descending): some entries from above
SMILES	Vaccinia inh	Vaccinia inh Venus
C[C@@H]1CN([C@@H](C)CO)C(=O)c2c(c3ccccc3n2C)-c2ccccc2CO[C@H]1CN(C)S(=O)(=O)c1ccccc1F	?	nt
COc1cccc(CN(C)C[C@H]2OCc3ccccc3-c3ccccc3C(=O)N([C@@H](C)CO)C[C@H]2C)c1	-34	-25
Cc1ccccc1-c1ccc2c(c1)O[C@H](CN(C)C)[C@H](C)CN([C@H](C)CO)S2(=O)=O	-9	-2

(next part)
SMILES	Vaccinia inh	Vaccinia inh Venus
C[C@@H]1CN([C@H](C)CO)C(=O)c2cc(/C=C/c3ccccc3)cnc2O[C@@H]1CN(C)S(=O)(=O)c1ccccc1	-28	-25
C[C@H]1CN([C@@H](C)CO)C(=O)c2cccc(NS(=O)(=O)c3ccc(F)cc3)c2O[C@H]1CN(C)C(=O)Nc1ccc(C(F)(F)F)cc1	-18	-2
C[C@@H]1CN([C@@H](C)CO)C(=O)c2cc(C#Cc3ccccc3F)cnc2O[C@H]1CN(C)C(=O)C1CCOCC1	13	7
O=C(Cc1ccccn1)NCC[C@H]1CC[C@H](NS(=O)(=O)c2ccc(Cl)cc2)[C@H](CO)O1	6	8
OC[C@@H]1[C@H](c2ccc(-c3cccnc3)cc2)[C@H]2CN(Cc3ccccn3)CCCCN12	9	-3
CO[C@H]1CN(C)C(=O)c2cc(NC(=O)C3CCC3)ccc2OC[C@@H](C)N(C(=O)CN(C)C)C[C@H]1C	1	6
C[C@H]1CCCCO[C@@H](CN(C)C(=O)CCCN(C)C)[C@@H](C)CN([C@@H](C)CO)C(=O)c2cc(NC(=O)CCC(F)(F)F)ccc2O1	17	10
C[C@H](CO)N1C[C@H](C)[C@H](CN(C)C(=O)c2cc(Cl)cc(Cl)c2)OCc2ccccc2-c2ccccc2C1=O	?	nt
CCNC(=O)C[C@H]1CC[C@H]2[C@H](COc3ccc(NS(C)(=O)=O)cc3C(=O)N2C)O1	2	5
C[C@H]1CN([C@@H](C)CO)C(=O)c2ccccc2-c2ccccc2CO[C@H]1CN(C)Cc1cccc2c1OCCCO2	-1	-7
CO[C@@H](CN(C)S(=O)(=O)c1ccc(Cl)cc1)[C@H](C)CN(Cc1ccccc1Cl)[C@H](C)CO	-29	-17
CCCN1[C@H](C(=O)OC)[C@@H](CO)[C@@H]2Cn3c(ccc(-c4cccc(C(=O)N(C)C)c4)c3=O)[C@@H]21	11	5
COc1cccc(-c2ccc([C@@H]3[C@@H](CO)N4CCCCN(S(=O)(=O)c5cccs5)C[C@@H]34)cc2)c1	18	-1
C[C@H](CO)N1C[C@H](C)[C@@H](CN(C)Cc2ccc(C(=O)O)cc2)Oc2c(NC(=O)C3CC3)cccc2C1=O	1	4
O=C(N[C@@H]1CC[C@@H](CCn2cc(-c3ccccc3)nn2)O[C@@H]1CO)c1cnccn1	-1	2
C[C@@H]1CCCCO[C@H](CN(C)C(=O)Nc2ccc(F)cc2)[C@H](C)CN([C@@H](C)CO)C(=O)c2cc(NC(=O)Cc3ccccc3)ccc2O1	-27	-11
C[C@@H]1CCCCO[C@@H](CN(C)C(=O)Nc2ccc(F)cc2)[C@H](C)CN([C@@H](C)CO)C(=O)c2cc(NC(=O)c3ccccc3)ccc2O1	-5	-7
O=C(C[C@@H]1C=C[C@@H](NC(=O)c2cccc(F)c2)[C@@H](CO)O1)NCc1ccc(Oc2ccccc2)cc1	-25	-21
C[C@@H]1CN([C@H](C)CO)C(=O)c2cc(NC(=O)Nc3cccc4ccccc34)ccc2O[C@H]1CN(C)Cc1ccc(C(=O)Nc2ccccc2N)cc1	15	0
C[C@@H]1CN([C@H](C)CO)C(=O)c2cc(NC(=O)C3CCCCC3)ccc2O[C@@H](C)CCCCO[C@@H]1CN(C)S(=O)(=O)c1ccc(Cl)cc1	-9	1
COc1ccc(S(=O)(=O)N(C)C[C@@H]2OCCCC[C@H](C)Oc3ccc(NC(=O)Nc4c(C)noc4C)cc3C(=O)N([C@@H](C)CO)C[C@H]2C)cc1	4	-3
O=C(C[C@@H]1CC[C@H](NC(=O)Nc2ccc3c(c2)OCO3)[C@@H](CO)O1)NCCCN1CCOCC1	6	5
C[C@@H]1CN([C@@H](C)CO)C(=O)c2cc(-c3cccnc3)cnc2O[C@@H]1CN(C)C(=O)NC1CCCC1	17	11
COCC(=O)Nc1ccc2c(c1)C(=O)N(C)[C@H]1CC[C@H](CC(=O)NCC(F)(F)F)O[C@@H]1CO2	7	5
CN(C)C(=O)c1cccc(-c2ccc([C@@H]3[C@@H](CO)N(C(=O)C4CCCCC4)[C@H]3C#N)cc2)c1	-15	-8
Cc1noc(C)c1S(=O)(=O)Nc1ccc2c(c1)C(=O)N([C@@H](C)CO)C[C@H](C)[C@@H](CN(C)Cc1ccc(Cl)c(Cl)c1)OCCCC[C@H](C)O2	?	nt
Cc1noc(C)c1NC(=O)NCC[C@H]1CC[C@@H](NC(=O)c2ccc(F)cc2)[C@H](CO)O1	15	9
CC(C)NC(=O)N1[C@@H]2CN(C)c3ccccc3[C@@H]2[C@@H]1CO	5	7
CC(C)(C)[S@](=O)N1Cc2cc(C(=O)N[C@H]3CCN(Cc4ccccc4)C3)nc(-c3cccc(-c4cccnc4)c3)c2[C@@H]1CCO	-7	7
CCN(C[C@H]1[C@@H](c2ccccc2)[C@@H](CO)N1C(=O)COC)S(C)(=O)=O	22	15
CC(C)NC(=O)N1[C@H](C#N)[C@@H](c2ccc(C#CC3CCCCC3)cc2)[C@@H]1CO	-28	-19
